KCNQ2 block – KCNQ2 channel blockers in CHO-K1 cells – cell-based, FluxOR thallium flux, B-score, primary screen (AID 2156); O88943; 20 min; stronger effect = lower value; only compounds with negative scores are shown here; some inactives read as strong as hits; B-score at 10 µM; actives 1.1% (n = 310,000);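 active means fluorescence ratio B-score at most minus 3 library SDs, with starting brightness B-score within 2 library SDs, cut at about -5.5 in these data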
Target sequence (O88943 whole entry, looked up): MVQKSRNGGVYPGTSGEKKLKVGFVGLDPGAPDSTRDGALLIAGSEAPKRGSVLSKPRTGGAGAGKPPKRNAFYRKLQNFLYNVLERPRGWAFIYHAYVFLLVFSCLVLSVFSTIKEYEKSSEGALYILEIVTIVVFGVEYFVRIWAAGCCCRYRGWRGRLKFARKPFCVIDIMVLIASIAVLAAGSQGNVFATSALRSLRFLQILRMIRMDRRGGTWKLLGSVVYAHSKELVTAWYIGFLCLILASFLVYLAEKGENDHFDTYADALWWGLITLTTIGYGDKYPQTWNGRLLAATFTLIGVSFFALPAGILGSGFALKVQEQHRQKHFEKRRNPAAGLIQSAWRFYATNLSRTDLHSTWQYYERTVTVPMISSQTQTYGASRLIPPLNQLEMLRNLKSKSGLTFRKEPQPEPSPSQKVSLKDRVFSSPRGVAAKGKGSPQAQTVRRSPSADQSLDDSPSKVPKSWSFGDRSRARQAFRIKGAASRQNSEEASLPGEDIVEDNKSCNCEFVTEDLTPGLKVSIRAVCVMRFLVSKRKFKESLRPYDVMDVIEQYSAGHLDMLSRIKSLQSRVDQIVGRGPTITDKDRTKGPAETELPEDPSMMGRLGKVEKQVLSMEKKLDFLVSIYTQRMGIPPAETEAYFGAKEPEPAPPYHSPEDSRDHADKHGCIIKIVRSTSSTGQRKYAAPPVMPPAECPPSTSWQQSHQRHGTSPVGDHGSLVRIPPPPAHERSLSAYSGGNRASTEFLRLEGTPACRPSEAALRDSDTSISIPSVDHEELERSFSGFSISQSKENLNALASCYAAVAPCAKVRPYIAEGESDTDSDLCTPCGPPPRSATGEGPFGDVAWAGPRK
KCNQ2 block baseline – second read-out of KCNQ2 block, no call of its own (marks repeat the call); B-score; measured here: initial fluorescence intensity artifact check;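 brightness before thallium and not channel activity; 0 = typical well and far values either way flag optical interference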
The depositor's hits bear a star; i = inactive.

no.	SMILES	KCNQ2 block	KCNQ2 block baseline
1	Cn1cc(C(=O)NCCO)c(=O)c2ccccc21	i	0.25
2	CNC(=O)c1c(NC(=O)c2cccc(C)c2)sc2c1CCC2	i	-1.4
3	Cc1ccc(CNS(=O)(=O)c2ccc3c(c2)n(C)c(=O)n3C)cc1	i	-0.07
4	CN(C(=O)COC(=O)c1ccc(C#N)cc1)c1ccccc1	i	-1.4
5	Cc1ccc2nc(-c3ccccc3)c(CC(=O)O)c(C(=O)O)c2c1	i	0.59
6	Cc1ccc(CNC(=O)CC(C)S(=O)(=O)c2ccc3c(c2)NC(=O)CS3)o1 (stereo unspecified)	i	-1.2
7	Cc1ccc(C)c(NC(=S)N(Cc2cccc(Br)c2)CC2CCC(C(=O)O)CC2)c1 (stereo unspecified)	i	1.4
8	O=[N+]([O-])c1ccc(NCCCN2CCOCC2)c(Cl)c1	i	0.14
9	CCc1ccc(CNC(=O)C2CCC(=O)N(CCc3ccc(Cl)cc3)C2)nc1 (stereo unspecified)	i	-0.38
10	Cc1sc2ncnc(SCC(=O)N3c4ccccc4Sc4ccc(Cl)cc43)c2c1C	i	-0.96
11	Cc1ccc(CNC(=O)C(Cc2ccccc2)NS(=O)(=O)c2ccc(Br)s2)cc1 (stereo unspecified)	i	-0.1
12	COc1ccc(-n2nc(C(=O)NCC(=O)N3CCN(c4ccccn4)CC3)c3ccccc3c2=O)cc1OC	i	1.1
13	CSc1ncc(Cl)c(C(=O)Nc2ccccc2Br)n1	i	-0.7
14	CCC(=O)c1ccc(N2CCN(C(=O)Cc3ccccc3)CC2)c(F)c1	i	-0.66
15	CN(C)S(=O)(=O)c1cccc(COC(=O)CN2C(=O)NC3(CCCC3)C2=O)c1	i	-0.65
16	O=C(Cn1c(=O)c2cccn2c2ccccc21)NCCCN1CCCCC1	i	0.38
17	CCOC(=O)CSc1nc2ccccc2n2cnnc12	i	0.55
18	Cc1ccc(OC(=O)c2cccc(C(=O)Oc3ccc(C)cc3)n2)cc1	i	-0.88
19	CC(Sc1nc(-c2ccccc2)nc2c1COC(C)(C)C2)C(=O)N1CCOCC1 (stereo unspecified)	i	0.86
20	COc1cccc(-c2noc(C(C)n3nc(C)c([N+](=O)[O-])c3C)n2)c1 (stereo unspecified)	i	1
21	COc1ccccc1CNC(=O)c1ccc(NS(=O)(=O)c2c(C)noc2C)cc1	i	-1.9
22	CCOc1ccc(CC(=O)OCN2C(=O)c3ccccc3C2=O)cc1	i	0.79
23	CC(=O)c1c(C)oc2ccc(OCc3ccccc3)cc12	i	1.9
24	O=C(C1CC1c1ccccc1)N1CCOCC1 (stereo unspecified)	i	-1.3
25	COc1ccc(CN2CCNC(=O)C2CC(=O)N(C)Cc2ccncn2)c(OC)c1 (stereo unspecified)	i	-0.25

Single records (already shown). Screens in order: KCNQ2 block, KCNQ2 block baseline
COc1ccc(CN2CCNC(=O)C2CC(=O)N(C)Cc2ccncn2)c(OC)c1 (stereo unspecified) across the screens: i, -0.25
COc1ccccc1CNC(=O)c1ccc(NS(=O)(=O)c2c(C)noc2C)cc1 across the screens: i, -1.9

Going on with the list:
no.	SMILES	KCNQ2 block	KCNQ2 block baseline
26	CC(=O)Nc1ccc(NC(=O)CSc2nnc(NC(=O)c3ccco3)s2)cc1	i	0.75
27	COc1cccc2sc(Nc3nc(-c4ccncc4)cs3)nc12	i	0.55
28	COc1ccc(P(=O)(COc2ccc([N+](=O)[O-])cc2)c2ccc(OC)cc2)cc1	i	-0.36
29	Cc1cc(C)cc(OCCCn2ccnc2)c1	i	2.2
30	O=C(NC1CCCCC1)c1cc(C2CC2)on1	i	0.29
31	O=C(NCc1ccc(F)cc1)c1ccc(NC(=O)C2CCCO2)cc1 (stereo unspecified)	i	1.1
32	Cc1ccc(S(=O)(=O)N(C(=N)N)c2nc(N(C)C)nc(N(C)C)n2)cc1	i	0.3
33	Cc1c(Br)c(O)c(Br)c(O)c1/C=N/n1c(-c2ccccc2)n[nH]c1=S	i	0.95
34	O=C(COc1ccc([N+](=O)[O-])cc1)Nc1cccc2nsnc12	i	3.4
35	CCN(CC(=O)NC1CCS(=O)(=O)C1)c1ccc(S(C)(=O)=O)cc1[N+](=O)[O-] (stereo unspecified)	i	-0.35
36	O=C(CCCSc1nc2ccccc2[nH]1)N1CCN(c2ccc([N+](=O)[O-])cc2)CC1	i	2.2
37	Cc1ccc(NC(=O)CNC(=O)c2ccco2)cc1	i	-0.88
38	COc1ccc(C2CC(c3ccc(OC)cc3O)=NN2C(=O)c2ccccc2)cc1 (stereo unspecified)	i	0.66
39	Cn1nnnc1SCCNCc1ccccc1OCc1ccccc1	i	-0.37
40	CN1/C(=C\C(=O)COC(=O)CN2C(=O)C3CC=CCC3C2=O)C(C)(C)c2ccccc21 (stereo unspecified)	i	0.82
41	O=C(Cc1cccs1)N/N=C/C=C/c1ccccc1[N+](=O)[O-]	i	1.2
42	COc1cccc(/C=N/n2c(-c3cc(C)[nH]n3)n[nH]c2=S)c1O	i	-0.4
43	CCCc1[nH]nc2c1C(c1ccc(OC)c(Cn3nnc4ccccc43)c1)C(C#N)=C(N)O2 (stereo unspecified)	i	0.91
44	CCOc1ccc2[nH]c(C)c(CN3CCCCCC3)c(=O)c2c1	i	-0.16
45	C[C@H](NC(=O)COc1ccc(Cl)cc1)C(=O)N1CCC2(CC1)NCCc1[nH]cnc12	i	-0.6
46	CCCN(Cc1nc(-c2ccc(Cl)cc2)no1)CC1CCCO1 (stereo unspecified)	i	0.26
47	Cc1ccc2nc(Cl)c(/C=N/n3c(C)nnc3C)cc2c1	i	2
48	O=C(CCl)N1c2ccccc2SCC1c1ccccc1 (stereo unspecified)	i	0.28
49	O=C(NCc1cccs1)C1CCCN1C(=O)NC1CCCCC1 (stereo unspecified)	i	3.7
50	COc1ccc(N2CCN(C(=O)COC(=O)CCc3ccccc3OC)CC2)cc1	i	0.76

Looked up above:
Cc1ccc(NC(=O)CNC(=O)c2ccco2)cc1 @ KCNQ2 block baseline: -0.88
CC(=O)c1c(C)oc2ccc(OCc3ccccc3)cc12 @ KCNQ2 block baseline: 1.9

(continued)
no.	SMILES	KCNQ2 block	KCNQ2 block baseline
51	O=c1[nH]cc(C(F)(F)F)cc1NS(=O)(=O)c1ccccc1[N+](=O)[O-]	i	-0.55
52	COc1cccc(-n2c(SCC(=O)N3CCOCC3)nc3c([nH]c4ccccc43)c2=O)c1	i	0.65
53	COC(=O)C(Cc1ccc(O)cc1)NC(=O)CCOc1ccc(OC)cc1 (stereo unspecified)	i	0.53
54	COc1ccc(C(=O)CCC(=O)NCCc2c[nH]c3ccccc23)cc1OC	i	0.1
55	COc1ccc(NC(=O)C2=C(C)NC(=O)NC2c2cccs2)c(OC)c1 (stereo unspecified)	i	0.85
56	Cc1[nH]c(=O)[nH]c(=O)c1S(=O)(=O)Nc1ccc(Oc2ccccc2)cc1	i	4
57	O=C(N/N=C\c1ccccn1)C1COc2cc3ccccc3cc2O1 (stereo unspecified)	i	2
58	OCCOCCn1c2ccccc2c2ccccc21	i	-0.99
59	COc1cccc(C(=O)Nc2cccc(OC(C)=O)c2)c1	i	1.6
60	CC(C)c1cc(CN2CCOCC2)cc(C(C)C)c1O	i	0.37
61	COc1cc(Cl)c(C)cc1NC(=O)CNC(C)c1ccccc1OC (stereo unspecified)	-5.8*	0.11*
62	COc1cccc(N2CCN(C(=O)c3cccn4c(=O)c5c(C)c(C)sc5nc34)CC2)c1	i	0.53
63	CCCCCCCCNC(=O)/C(C#N)=C/c1ccc2c(c1)OCCO2	i	0.15
64	COc1ccc(CN(C(=O)c2oc3cc(C)c(C)cc3c2C)C2CCS(=O)(=O)C2)cc1OC (stereo unspecified)	i	0.88
65	COC(=O)C1=C(C(=O)OC)[C@@H]2N(C)c3ccccc3[C@@]23C[C@@H](C(=O)OC)N(C(=O)c2ccco2)C3=N1	i	-0.83
66	Cc1nc2cc(C(F)(F)F)ccc2n1C1CCN(CC(=O)N2CCOCC2)CC1	i	1.3
67	CSc1ccc(/C=N/NC(=O)c2cc(O)cc(O)c2)cc1	i	1.5
68	Cc1ccccc1N(CC(=O)NCc1ccc2c(c1)OCO2)C(=O)C1CSC(=O)C1 (stereo unspecified)	i	-1.3
69	COc1ccc(NC2=NC3(CCCCC3)N=C(N)N2)cc1	i	0.99
70	CC(Sc1nc(C2CC2)n(-c2ccccc2)n1)C(=O)c1c(N)n(C)c(=O)n(C)c1=O (stereo unspecified)	i	-0.75
71	CCOC(=O)c1sc(C)c2c1NC(C)(c1cccc3ccccc13)NC2=O (stereo unspecified)	i	1.3
72	O=C(c1ccc(Oc2ccccc2)cc1)C1CCCN(C(=O)c2cnccn2)C1 (stereo unspecified)	i	0.01
73	CNC(=S)N/N=C(\C)c1ccc(N2CCOCC2)cc1	i	-1.5
74	COc1cc(NC(=O)NNC(=O)c2cc3occc3n2C)cc(OC)c1OC	i	-0.29
75	CC1(C)C(c2ccco2)=[N+]([O-])C2(CCCCC2=O)N1O (stereo unspecified)	i	-0.95
76	O=C(O)/C=C/C(=O)Nc1ccc(S(=O)(=O)Nc2nccs2)cc1	i	1
77	Cn1c(=N)n(CC(=O)c2cccs2)c2ccccc21	i	0.24
78	CCCCN(C(=O)c1ccccc1OCc1ccc(F)cc1)c1c(N)n(CC(C)C)c(=O)[nH]c1=O	i	0.3
79	Cc1ccc2c(c1)C(=O)c1c(C(=O)O)cccc1-2	i	-0.72
80	O=C1NC(=O)/C(=C/c2ccc(N3CCOCC3)o2)N1	i	1.4
81	Cc1cc(C)c[n+](-c2nc3ccccc3nc2C(=C=[N-])C#N)c1	i	-1.8
82	Cc1cccc(NC(=O)c2oc3c(c2C)C(=O)CC(C)(C)C3)n1	i	-0.31
83	Cc1cc(NC(=O)c2ccc3c(c2)C(=O)N(CC(C)C)C3=O)no1	i	-0.27
84	Nc1ncnc2nc(SCc3ccc(Cl)cc3Cl)[nH]c12	i	-0.05
85	Cc1ccc(-n2c(C)cn(C(=O)c3ccccc3)c2=S)cc1	i	-1.1
86	O=C(NCc1ccccn1)c1cc(-c2ccccc2)nc2ccccc12	i	0.66
87	Cc1nn(-c2ccccc2)c2c1/C(=N/O)CC(C)(C)C2	i	0.2
88	COc1ccc(Br)cc1CN(C)CC(=O)Nc1c(Cl)ccc(C)c1Cl	i	-1.2
89	CSCCC(NC(=O)c1ccccc1Cl)C(=O)NNC(=O)c1ccncc1 (stereo unspecified)	i	1.6
90	COc1ccc(S(=O)(=O)N2CCN(C(=S)NCC3CCCO3)CC2)cc1OC (stereo unspecified)	i	-1.4
91	CSc1c(CC(=O)Nc2ccccc2C(F)(F)F)n(Cc2ccccc2)c2ccccc12	i	0.37
92	Cc1cc(Cl)ccc1OC(C)C(=O)N1CCCN(C(=O)C(C)Oc2ccc(Cl)cc2C)CC1 (stereo unspecified)	-6.2*	0.02*
93	COC(=O)/C=C/c1ccsc1NC(C)=O	i	0.01
94	COc1ccc(CC(=O)O/N=C(\N)Cc2cccc3ccccc23)cc1OC	i	-0.2
95	CCN(C(=O)C1CCN(S(=O)(=O)c2cccc3nonc23)CC1)c1ccccc1	i	0.03
96	CSc1nc(N2CCOCC2)c2c3c(sc2n1)CCCC3	i	1.1
97	COC(=O)c1ccc(CN2CCc3ccccc32)cc1	i	1.1
98	CC(=O)c1cccc(Nc2cc(C)nc3c(C)cc(C)cc23)c1	i	-2.3
99	O=C(NC(N1CCOCC1)C(Cl)(Cl)Cl)c1ccc(Br)cc1 (stereo unspecified)	i	-0.04
100	Cc1ccc(OS(=O)(=O)c2ccc(-c3csc(C)n3)s2)c(C)c1	i	0.03

(more compounds)
no.	SMILES	KCNQ2 block	KCNQ2 block baseline
101	C=CCN1C(=O)NC(c2ccccc2)(C(F)(F)F)S/C1=C(\C#N)c1nnc(N2CCOCC2)n1-c1ccccc1 (stereo unspecified)	i	-0.12
102	COCCNCc1ccc(C(C)C)cc1	i	3.4
103	CCOC(=O)CN1C(=O)NC(C)(c2ccc(OC(F)F)cc2)C1=O (stereo unspecified)	i	0.33
104	COC(=O)c1ccc(OS(=O)(=O)N(C)C)cc1	i	0.08
105	C/C(CC(=O)Nc1cccc2c1CCCC2)=N\NC(=O)c1ccccc1N	i	0.84
106	COc1ccc(C2=CC(=O)OC(C)(c3ccccc3)O2)cc1 (stereo unspecified)	i	-3.3
107	COc1cc(/C=C(\C#N)C(=O)NCCc2ccccc2)cc(OC)c1O	i	2
108	CNc1nc(N)c(C(=O)C23CC4CC(CC(C4)C2)C3)s1	i	-0.68
109	CCC(=NC(C)c1ccccc1)c1c(O)n(C)c(=O)n(C)c1=O (stereo unspecified)	i	1.8
110	CS(=O)(=O)N1CCCC(C(=O)NCc2ccccn2)C1 (stereo unspecified)	i	1.9
111	CC1(C)C2CCC1(CS(=O)(=O)Nc1ccccc1)C(=O)C2 (stereo unspecified)	i	-0.26
112	COCCn1cnnc1SCC(=O)Nc1ccccc1C(=O)Nc1ccc2c(c1)OCO2	i	0.89
113	CCc1ccc(NC(=O)Cn2ncn3c(cc4ccccc43)c2=O)cc1	i	1.6

Part of the list above, with the structure last.
# | KCNQ2 block | KCNQ2 block baseline | mol
97 | i | 1.1 | COC(=O)c1ccc(CN2CCc3ccccc32)cc1
103 | i | 0.33 | CCOC(=O)CN1C(=O)NC(C)(c2ccc(OC(F)F)cc2)C1=O (stereo unspecified)
30 | i | 0.29 | O=C(NC1CCCCC1)c1cc(C2CC2)on1
38 | i | 0.66 | COc1ccc(C2CC(c3ccc(OC)cc3O)=NN2C(=O)c2ccccc2)cc1 (stereo unspecified)
70 | i | -0.75 | CC(Sc1nc(C2CC2)n(-c2ccccc2)n1)C(=O)c1c(N)n(C)c(=O)n(C)c1=O (stereo unspecified)

Source: PubChem BioAssay (Johns Hopkins Ion Channel Center)

This is a subset. The share of hits here may be higher or lower than overall.
